Screening results deposited in PubChem BioAssay by National Center for Advancing Translational Sciences (NCATS).
Cruzain inh Det: cruzain (T. cruzi) inhibition with detergent | 200,000 tested, 0.43% active | P25779 | purified cruzain, Z-FR-AMC fluorescence, 0.01% Triton | Potency, µM, for the others: max response, negative = inhibition, actives largely listed as inhibitors; active means well fitted curve in the direction sought with a large enough effect; inconclusive means small, poorly fitted or top-dose-only effect, or another doubt; inactive means no such curve, though single readings can be large; an effect the other way counts as inactive or inconclusive;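 further: plate controls were neutral wells for no effect and buffer without enzyme for full effect; nearly all actives have a fitted effect of over 40% in size; top concentration of the series not given in the record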
Target sequence (P25779 123-467 limits assumed): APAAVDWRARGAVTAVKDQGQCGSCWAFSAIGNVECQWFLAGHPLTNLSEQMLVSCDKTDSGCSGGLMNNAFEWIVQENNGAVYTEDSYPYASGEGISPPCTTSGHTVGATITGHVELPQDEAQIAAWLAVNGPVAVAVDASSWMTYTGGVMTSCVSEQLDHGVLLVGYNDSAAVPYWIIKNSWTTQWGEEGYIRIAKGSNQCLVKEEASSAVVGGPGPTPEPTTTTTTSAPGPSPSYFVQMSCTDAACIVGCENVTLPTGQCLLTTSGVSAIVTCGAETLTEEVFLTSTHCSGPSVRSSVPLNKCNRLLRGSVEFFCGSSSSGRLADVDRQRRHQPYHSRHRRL
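Compounds were screened in titration against cruzain (1.5 nM) with 0.01% Triton X-100 to counter colloidal aggregation. Activity was the AMC fluorescence increase over 60 s after adding 2 uM Z-FR-AMC at pH 5.5.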
SARS PLpro yeast: inhibitors of SARS-CoV papain-like protease in yeast. S. cerevisiae expressing SARS-CoV PLpro, growth rescue; control for the full effect not named in the record. Potency, µM (titrated, usually from 32.9 µM), for inactives: top-dose activity, positive = growth rescue. 330,000 tested, 0.19% active. AID 485353; further: 0% is about no effect; nearly all actives have a fitted effect of over 55% in size; growth read by luminescence after 48 h
Cruzain noTriton: blocks cruzain activity in detergent-free assay; P25779; purified cruzain, Z-FR-AMC fluorescence, no detergent; Potency, µM, for the others: max response, negative = inhibition, usual class: inhibitors; 200,000 tested, 2.3% active; AID 1476; active means well fitted curve in the direction sought with a large enough effect; inconclusive means small, poorly fitted or top-dose-only effect, or another doubt; inactive means no such curve, though single readings can be large; an effect the other way counts as inactive or inconclusive;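 further: plate controls were enzyme without inhibitor for no effect and buffer without enzyme for full effect; nearly all actives have a fitted effect of over 40% in size; top concentration of the series not given in the record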
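Purified cruzain at 1.5 nM, pre-incubated 15 min with compound at room temperature in 100 mM sodium acetate pH 5.5, 5 mM DTT, 0.00005% Triton X-100. Reaction started with 2 uM Z-FR-AMC; AMC fluorescence increase over 60 s gives rate.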
Marburg entry inh: blocks Marburg virus binding to or entry into cells. Potency, µM (highest dose often 37.8 µM), for the others: at the top dose activity change, negative = inhibition, usual class: inhibitors. 300,000 tested, 1.8% active. Marburg virus pseudotyped entry inhibition, cell reporter; control for the full effect not named in the record; about a third of the inactives were read at about 46 µM; active = well fitted inhibition curve with a large enough effect; inconclusive = small, poorly fitted or top-dose-only effect, or effect the other way; inactive = flat fitted curve, though single readings scatter; tested in HEK293 cells; about a fifth of its hits are not listed in these tables; further: on the % scale 0 is the no-effect control and ±100 the full control effect; luciferase read-out
RE007 growth inh: less growth of the S. pombe RE007 Vpr strain. S. pombe RE007 Vpr strain, BacTiter-Glo ATP luminescence, 24 h; control for the full effect not named in the record. Potency, µM (series often up to 92.2 µM), for the others: top-dose activity change, negative = less growth. 360,000 tested, 0.21% active. AID 651644; active = well fitted falling curve with a large enough effect; inconclusive = small, poorly fitted or top-dose-only effect; inactive = no such curve, though single readings can be large or run the other way;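 further: on the % scale 0 is the no-effect control and ±100 the full control effect; nearly all actives have a fitted effect of over 50% in size; the assay follows cell death caused by Vpr and the record does not say whether a fall means rescue or toxicity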
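Fission yeast strain RE007, carrying one chromosomally integrated HIV-1 vpr copy, was seeded at OD 0.01 in PMG+AL medium with 23 nL pinned compound. After 24 h at 30 °C and 99% humidity, viability was read by BacTiter-Glo luminescence.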
Lassa entry inh: Lassa virus entry inhibition; Lassa virus pseudotype entry inhibition, cell reporter; control for the full effect not named in the record; 300,000 tested, 1.2% active; Potency, µM (titrated, usually from 37.9 µM), without a hit: top-dose activity change, negative = inhibition, actives largely listed as inhibitors; AID 540256; active means well fitted inhibition curve with a large enough effect; inconclusive means small, poorly fitted or top-dose-only effect, or effect the other way; inactive means flat fitted curve, though single readings scatter; tested in HEK293 cells; further: on the % scale 0 is the no-effect control and ±100 the full control effect; nearly all actives have a fitted effect of over 50% in size; luciferase read-out
StopGo reporter: FMDV 2A StopGo reporter, luciferase signal; 410,000 tested, 1.2% active; Potency, µM (highest dose often 57.9 µM), inactives show at the highest dose signal change, negative = less light; human cells with a luciferase reporter of 2A StopGo recoding; control for the full effect not named in the record; active = well fitted falling curve with a large enough effect; inconclusive = small, poorly fitted or top-dose-only effect; inactive = no such curve, though single readings can be large or run the other way; tested in HEK293T cells; further: on the % scale 0 is the no-effect control and ±100 the full control effect; nearly all actives have a fitted effect of over 45% in size; luciferase light after 4 h
NS1 function inh: inhibitors of influenza NS1 protein function. Potency, µM (titrated, usually from 46.1 µM), for the others: at the highest dose activity, positive = more growth. S. cerevisiae slowed by influenza A NS1, growth recovery by OD600. 270,000 tested, 0.4% active; further: actives are rising curves; nearly all actives have a fitted effect of over 50% in size
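A cell-based growth assay was used: compounds that relieve NS1-induced slow growth of budding yeast raise OD600. Assay medium was yeast nitrogen base with ammonium sulphate and -URA supplement, pH 6.0, with 2% galactose.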
Starred values were filed as active, the others as inactive; u = inconclusive; x = not tested or not shown; [ ] = another dose, or the depositor's remark. Unless noted, the call rests on the fitted dose curve; in most records, active means well fitted rising curve with a large enough effect; inconclusive means small, poorly fitted or top-dose-only effect; inactive means no such curve, though single readings can be large or run the other way. Potency means the concentration at half of the fitted maximal effect. No enrichment for hits. About 4.7% of those tested had a hit in this group.

SMILES	Cruzain inh Det	SARS PLpro yeast	Cruzain noTriton	Marburg entry inh	RE007 growth inh	Lassa entry inh	StopGo reporter	NS1 function inh
C[C@]12c3[nH]c4ccc(Cl)cc4c3CCN1C(=O)[C@@H](CC(=O)NCCC1=CCCCC1)C[C@@H]2C(=O)N1CCOCC1	x	4.7%	x	6.8%	8.9%	x	-18.8%	x
CCN(Cc1ccncc1)C(=O)C1CCN(S(=O)(=O)c2cccs2)CC1	-0.5%	3.0%	-1.2%	5.6%	5.9%	u	10.2%	3.0%
CSc1ccc(CCNC(=O)NCc2noc3ccccc23)cc1	-4.6%	x	-5.1%	x	x	-20.0%[46.1 µM]	-4.2%	x
CCc1nc(N2CCN(C(C)=O)CC2)c(C#N)c2c1COC(C)(C)C2	x	-0.1%	x	x	15.0%	x	-18.4%	1.4%
O=C(Nc1cccc(Cl)c1)C1CCN(S(=O)(=O)Cc2ccccc2)CC1	-4.5%	x	-3.1%	u	x	-7.5%[46.1 µM]	-5.2%	x
Cc1ccc(C(=O)O/N=C(\N)Cc2cccs2)c(Cl)c1	x	u	x	x	-25.4%	x	-29.0%	-110.6%
C[C@@H]1CC[C@]2(O[C@@H](CCO)C[C@@H](O)[C@@H]2O)O1	x	1.5%	x	x	2.0%	x	6.8%	3.0%
COC(=O)c1cc(C#N)c(OC(C)C)nc1C	x	-5.0%	x	u	5.9%	-26.4%[46.1 µM]	-7.0%	x
Cc1cn2c(=O)cc(COC(=O)c3cccc(NC(=O)COc4ccc(Cl)cc4)c3)nc2s1	-0.4%	x	4.1%	x	x	u	-2.2%	x
Cc1cc(OC(=O)c2cc(C(F)(F)F)cc(C(F)(F)F)c2)c([N+](=O)[O-])c(=O)[nH]1	x	5.1%	x	x	2.1%	x	3.8%	-11.0%
COc1cc(/C=C/C(=O)OCC(=O)NC(=O)NCc2ccccc2)ccc1OCC#N	x	0.7%	x	-9.2%	-17.3%	-20.1%	-17.1%	5.7%
COc1ccccc1Nc1nc2c(C)cccc2cc1C#N	-6.0%	4.3%	-18.3%	-29.5%	-0.2%	-24.3%	28.9%	5.0%
COCC(C)Nc1nc(C)c(C(C)=O)s1 (centres undefined)	x	-4.4%	x	u	1.9%	u	0.0%	x
CCCCOC(=O)C1CCCC(C)N1 (centres undefined)	0.9%	-3.1%	2.6%	1.9%	9.6%	u	9.8%	-4.9%
COc1ccc(N2CC(C)Cn3c2nc2c3c(=O)n(Cc3ccc(C)cc3)c(=O)n2C)c(OC)c1 (centres undefined)	x	0.2%	x	u	-7.5%	-28.6%[46.1 µM]	-24.4%	x
Cc1cccc(C)c1NC(=O)CSCC(=O)O	4.8%	15.1%	-1.8%	1.7%	16.8%	-0.2%	-5.3%	-8.7%
O=C(Nc1cc(C(F)(F)F)ccc1N1CCOCC1)c1cccnc1	1.0%	-1.3%	5.6%	12.0%	-7.6%	-1.5%	-20.9%	-16.6%
COc1ccccc1C(=O)COC(=O)CCN=C1NS(=O)(=O)c2ccccc21	x	-0.5%	x	2.9%	2.0%	10.2%	4.8%	x
O=C(NNC(=O)c1ccc(F)cc1F)c1ccc2c(c1)OCO2	x	-1.5%	x	6.0%[46.1 µM]	-6.7%	x	64.7%[activator]	x
COc1ccccc1N(Cc1ccccc1)S(=O)(=O)c1cc(C(=O)O)ccc1Cl	x	0.5%	x	-16.8%[46.1 µM]	-7.4%	-1.4%	-3.4%	7.2%
COc1cccc(CN2CCN(Cc3cc(OC)c(OC)c(OC)c3)CC2)c1OC	x	1.1%	x	-4.4%[46.1 µM]	19.7%	-11.4%[46.1 µM]	-14.7%	4.8%
CC(C)(C)OC(=O)Cn1c(=O)cnc2ccccc21	-2.1%	7.9%	-9.1%	0.6%	20.9%	1.7%	-5.6%	5.2%
CCCn1c(N)c(C(=O)NS(=O)(=O)c2ccc(C)cc2)c(=O)n(C)c1=O	x	0.2%	x	-22.9%	-9.5%	8.7%	u	x
CC12CCC(C(=O)N(c3cccc(Cl)c3)C1=O)C2(C)C (centres undefined)	-2.0%	0.7%	-6.8%	u	-3.4%	-12.2%	-13.8%	1.1%
O=C(OCc1ccc(F)cc1)c1ccc2c(c1)-c1ccccc1C2=O	2.7%	-0.2%	-8.4%	-3.0%	-5.5%	1.12µM*	44.0%[activator]	-5.4%
COc1cccc(NC(=O)CN2C(=O)NC(C)(C3CC3)C2=O)c1 (centres undefined)	x	9.1%	x	u	2.8%	-0.1%	0.7%	x
O=C(C=Cc1ccco1)c1ccc2ccccc2c1	x	x	x	u	-7.1%	u	-12.7%	x
CN(C)S(=O)(=O)c1ccc(C(=O)NCC(c2cccs2)N2CCOCC2)cc1 (centres undefined)	x	14.6%	x	-14.5%	20.5%	-15.3%	-6.3%	x
O=C(Nc1ccccc1N1CCCC1)c1ccc2ccccc2c1	x	-38.2%	x	x	3.6%	x	-2.9%	-18.9%
O=C(NCC(c1ccco1)N1CCN(c2ccc(F)cc2)CC1)C(=O)NC1CCCCC1 (centres undefined)	x	-3.1%	x	6.2%	4.2%	u	-4.8%	x
COc1ccc(CNC(=O)c2cnc3sc(N4CCCCCC4)nn3c2=O)cc1	-2.2%	x	3.7%	x	x	u	-6.8%	x
Cc1ccc(NC(=O)N(Cc2cc3cc(C)cc(C)c3[nH]c2=O)CC2COCCO2)cc1 (centres undefined)	-6.3%	-0.2%	u	u	19.0%	-9.7%	-14.3%	-49.7%
O=c1[nH]c2ccccc2nc1Cc1ccc([N+](=O)[O-])cc1	x	7.7%	x	-20.3%[46.1 µM]	-13.4%	0.0%	14.6%	14.7%
Cc1onc(-c2ccccc2Cl)c1C(=O)NCc1nnnn1-c1ccc(F)cc1	x	1.3%	x	-10.9%	-9.0%	-7.7%	5.6%	x
CCN(CC(=O)Nc1c(F)cccc1F)C(=O)C1(c2ccccc2)CC1	x	u	x	8.3%	4.2%	-1.2%	-11.4%	-6.7%
Cc1ccsc1/C=N/n1cnnc1	x	-0.9%	x	-14.5%[46.1 µM]	13.3%	6.0%[46.1 µM]	-14.6%	-1.2%
CCN(c1ccccc1)S(=O)(=O)c1ccc(Cl)c(NC(=O)CSc2nncn2C)c1	1.1%	1.4%	0.1%	1.7%	-8.2%	-6.4%	-6.7%	-6.5%
CC[N+]1(CC(O)COC2CC(C)CC(C)(C)C2)CCOCC1 (centres undefined)	x	0.4%	x	u	4.1%	-6.5%[46.1 µM]	-9.2%	-3.8%
Cc1cccc(NC(=O)CSc2nc3ccc(NC(=O)COc4ccccc4C)cc3s2)c1	-0.9%	x	u	u	x	u	0.0%	x
CCOc1ccc(NC(=O)Nc2cc(-c3ccccc3)sc2C(=O)OC)cc1	-1.3%	-14.2%	u	6.4%	-12.3%	u	0.0%	15.2%
CCc1ccc(N2C(=O)c3sc4nnc(C)c(=O)n4c3C2=O)cc1	2.7%	-4.1%	u	5.2%	-7.1%[3.69 µM]	-9.4%	0.0%	-37.6%
O=S(=O)(Nc1ccccc1C(F)(F)F)c1ccc(-c2ccccn2)s1	x	-9.1%	x	x	-2.1%	x	14.2%	-111.7%
CC1CCC(NC(=O)C2CCC(CNc3c(N4CCCCC4)c(=O)c3=O)CC2)CC1 (centres undefined)	x	-0.5%	x	-0.3%[46.1 µM]	-8.7%	9.6%	10.3%	-0.9%
CCOc1cc(/C=N/n2cnnc2)ccc1OCC(=O)Nc1ccccc1OC	-7.3%	-2.3%	17.9%	-2.1%	0.2%	-1.2%	-14.0%	-6.8%
O=C1c2[nH]nc(-c3ccc(Br)cc3)c2C(c2cccc(O)c2)N1c1ccc(Cl)cc1 (centres undefined)	-5.1%	x	u	u	x	u	u	x
CCn1c(COc2ccc3c(c2)CCCC3)nnc1SCC(=O)Nc1ccc(C(=O)OC)cc1	-0.1%	9.0%	-0.5%	-4.7%	0.2%	-2.3%	4.8%	-1.9%
Nc1ccccc1Nc1ccncc1[N+](=O)[O-]	0.1%	11.5%	-6.5%	21.6%	0.0%	6.7%	-7.6%	0.3%
O=C(Nc1cc(=O)[nH]c2nc(-c3ccccc3)nn12)c1ccc(Cl)cc1	x	2.0%	x	4.0%[46.1 µM]	-1.3%	5.2%	5.2%	-0.6%
CCOc1cccc(CNC(=O)c2ccc(N3CCCC3)c(NC(=O)NCc3ccc(F)cc3)c2)c1	-0.9%	x	3.7%	x	x	-16.7%[46.1 µM]	-26.9%	x
CC(=O)Oc1ccc(C)cc1-n1nc2ccccc2n1	-6.1%	-42.1%	-4.4%	u	-26.4%	10.7%	29.5%	-20.6%
Additional structures.
SMILES	Cruzain inh Det	SARS PLpro yeast	Cruzain noTriton	Marburg entry inh	RE007 growth inh	Lassa entry inh	StopGo reporter	NS1 function inh
CCc1ccc(NC(=O)CSc2nc3ccccc3c(=O)n2CCN2CCOCC2)cc1	-7.6%	-1.8%	u	-28.1%	-9.4%	u	-7.0%	-50.2%
Cc1cccc(NS(=O)(=O)c2cc(OCC(N)=O)c(C)cc2Cl)c1	-4.2%	u	-7.7%	-1.9%	22.7%	2.4%	19.0%	0.8%
CCC(c1nnnn1Cc1ccc(OC)cc1)N1CCN(C(=O)c2ccco2)CC1 (centres undefined)	x	0.9%	x	2.1%[46.1 µM]	50.5%	-6.0%	-0.4%	1.4%
COc1ccc(CCC(=O)N2CCCSC2=Nc2ccc(C(C)=O)cc2)cc1	-7.6%	16.0%	15.9%	0.5%	2.4%	-29.5%	-1.7%	-11.6%
CC1CCCN(CCCCOc2cccc(Br)c2)C1 (centres undefined)	1.9%	-28.7%	2.9%	2.91µM*	0.1%	3.26µM*	-16.3%	4.0%
CCOc1ccccc1NC(=O)c1cccnc1	x	x	x	11.6%	-5.6%	10.9%	-1.7%	x
O=C(NC1CCCCC1)NC1CC2CCC(C1)N2C(=O)NC1CCCCC1 (centres undefined)	-2.8%	-0.9%	-1.7%	x	x	x	x	3.7%
